RE007 growth inh – qHTS Assay for Inhibitors of the HIV-1 protein Vpr | S. pombe RE007 Vpr strain, BacTiter-Glo ATP luminescence, 24 h; control for the full effect not named in the record | Potency, µM (series often up to 92.2 µM), without a hit: at the top dose activity change, negative = less growth | 0.21% of 360,000 active | AID 651644, 2012; active = well fitted falling curve with a large enough effect; inconclusive = small, poorly fitted or top-dose-only effect; inactive = no such curve, though single readings can be large or run the other way;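 note: % is set by controls: 0 for no effect and ±100 for the full control effect; nearly all actives have a fitted effect of over 50% in size; the assay follows cell death caused by Vpr and the record does not say whether a fall means rescue or toxicity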
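Fission yeast RE007 carrying one integrated HIV-1 vpr copy, seeded at OD 0.01 in PMG+AL medium with 23 nL pinned compound. Grown 24 h at 30 degrees; viability read by BacTiter-Glo luminescence after 5 min.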
2A StopGo – High Throughput Screening for Foot and Mouth Disease Virus Antivirals | human cells with a luciferase reporter of 2A StopGo recoding; control for the full effect not named in the record | Potency, µM (highest dose often 57.9 µM), inactives show at the top dose signal change, negative = less light | 1.2% of 410,000 active | AID 1159524, 2015; active = well fitted falling curve with a large enough effect; inconclusive = small, poorly fitted or top-dose-only effect; inactive = no such curve, though single readings can be large or run the other way; tested in HEK293T cells; note: % is set by controls: 0 for no effect and ±100 for the full control effect; nearly all actives have a fitted effect of over 45% in size; luciferase light after 4 h
SARS PLpro yeast – qHTS of Yeast-based Assay for SARS-CoV PLP | S. cerevisiae expressing SARS-CoV PLpro, growth rescue; control for the full effect not named in the record | Potency, µM (highest dose often 32.9 µM), for inactives: at the top dose activity, positive = growth rescue | 0.19% of 330,000 active; active means well fitted rising curve with a large enough effect; inconclusive means small, poorly fitted or top-dose-only effect; inactive means no such curve, though single readings can be large or run the other way; note: 0% is about no effect; nearly all actives have a fitted effect of over 55% in size; growth read by luminescence after 48 h
* = called active by the depositor; ? = inconclusive; [ ] = remark or other dose. Potency is the fitted concentration of half-maximal effect.

Screens in order: RE007 growth inh, 2A StopGo, SARS PLpro yeast
Cc1noc(C)c1NC(=O)N(C)C[C@H]1Oc2c(NC(=O)Cc3ccccc3)cccc2C(=O)N([C@H](C)CO)C[C@@H]1C
 : 13%, -2%, -5%
C/C(=C/CCC(C)(O)C1CC[C@@]2(C)[C@@H]3CC=C4[C@@H](CC[C@H](O[C@H]5O[C@@H](CO)[C@H](O)[C@@H](O)[C@@H]5O)C4(C)C)[C@]3(C)C(=O)C[C@]12C)CO[C@@H]1O[C@H](CO)[C@@H](O)[C@H](O)[C@H]1O (stereo not given in full)
 : -4%, -7%, 3%
CCN(CC(=O)Nc1ccccc1C(F)(F)F)C(=O)c1ccc(N2CCCC2=O)cc1
 : -8%, -6%, 9%
C#CCOCCOCCOCCNc1nc(N2CCN(C(=O)CCCCCCCCCCNC(=O)[C@H]([C@@H](C)CC)n3cc(CCCCCN)nn3)CC2)nc(N2CCN(C(=O)CCCCCCCCCCNC(=O)[C@@H]([C@H](C)O)n3cc(C)nn3)CC2)n1
 : 4%, ?, 4%
Cc1occc1C(=O)NNC(=O)C1CC1
 : 5%, 18%, 2%
COc1ccc(C(=O)NCc2ccccc2C)cc1S(=O)(=O)NC1CCCC1
 : 5%, 49%[activator], 2%
N/C(=N\OC(=O)Cc1ccc([N+](=O)[O-])cc1)c1ccccn1
 : -14%, 13%, 1%
COc1ccc(-c2csc(NC(=O)CSC(C)C(=O)Nc3cc(C)on3)n2)cc1OC (stereo not given)
 : 10%, ?, 1%
CC(C)(C)N1CC23CCC(C[C@@H]2C1=O)O3 (stereo not given in full)
 : -2%, -2%, -25%
COc1ccc(F)cc1CN1CCN(CC(=O)Nc2ccccc2C(=O)NC2CC2)CC1
 : -22%, ?, 1%
CCC(C)Sc1cccc(-c2nc3cnccn3c2NC2CCCCC2)c1 (stereo not given)
 : 6%, -6%, -5%
COc1cc(C2SC(C)C(=O)N2CCc2ccccc2)cc(OC)c1OC (stereo not given)
 : 4%, -21%, -2%
O=C(Cn1cc(C(F)(F)F)ccc1=O)NCC1CCCO1 (stereo not given)
 : 12%, 5%, 4%
O=C(Cc1ccccn1)c1ccc(F)cc1
 : -3%, 95%[activator], 1%
COc1ccc2c(c1)C(=O)N1[C@H]3c4cc(C)ccc4OC[C@@H]3[C@H](c3ccccc3)[C@]1(C)C(=O)N2
 : 10%, 0%, 3%
CCNc1nc(SCC(=O)Nc2ccc(Cl)c(Cl)c2)nc(N(C)C)n1
 : -5%, ?, -8%
Cc1sc2ncn(CC(=O)NC3CCCCC3)c(=O)c2c1C
 : 2%, -5%, 1%
NC(=O)C1CCN(C(=O)c2cc(-c3ccc(Cl)s3)nc3ccccc23)CC1
 : 3%, 28%, 3%
CCN(C[C@H]1N[C@@](Cc2ccccc2)(C(=O)OC)[C@H]2C(=O)N(Cc3ccccc3)C(=O)[C@@H]12)C(=O)Nc1ccc(C(F)(F)F)cc1
 : 1%, -22%, -27%
O=C(NCc1ccccc1)c1ccc(Cl)c(S(=O)(=O)N2CCCC2)c1
 : -6%, -4%, 4%
COc1cccc(C(=O)NC2C(=O)N3C(C(=O)O)=C(COC(C)=O)CSC23)c1 (stereo not given)
 : 1%, 4%, -3%
FC(F)Oc1ccccc1NC(=S)Nc1cccnc1
 : 9%, -3%, 3%
C[C@@H](OC(=O)N(C)Cc1ccccc1)[C@H]1O[C@]2(C)CCCC[C@H]1O2
 : -6%, 13%, 1%
CC(C)c1ccc(C2(C)NC(=O)N(CC(=O)N3CCN(C(=O)c4cccs4)CC3)C2=O)cc1 (stereo not given)
 : 5%, ?, 6%
Cc1nc(NC(=S)Nc2ccccc2)sc1C
 : 7%, 39%[activator], ?
COc1ccc(NC(=O)COC(=O)CCC(=O)c2cccs2)cc1OC
 : 15%, -21%, -6%
O=C(CSCc1ccccc1)Nc1cc([N+](=O)[O-])ccc1F
 : -9%, 10%, 0%
Cc1ccc(S(=O)(=O)N2CCN=C2SCc2cccnc2)cc1
 : 5%, -4%, 0%
CCOC(=O)[C@@H]1[C@H]2COc3cc(OC)ccc3[C@@H]2N2C(=O)N(c3cccc(C)c3)C(=O)[C@]12C
 : -9%, -4%, 5%
COC(=O)C1=C(c2ccc(OC)c(OC)c2)C[C@@H]2CC[C@H]1N2C(=O)NCCOc1ccccc1
 : -9%, -8%, -5%

13 consecutive entries already listed:
Screens in order: RE007 growth inh, 2A StopGo, SARS PLpro yeast
Cc1occc1C(=O)NNC(=O)C1CC1
 : 5%, 18%, 2%
COc1ccc(C(=O)NCc2ccccc2C)cc1S(=O)(=O)NC1CCCC1
 : 5%, 49%[activator], 2%
N/C(=N\OC(=O)Cc1ccc([N+](=O)[O-])cc1)c1ccccn1
 : -14%, 13%, 1%
COc1ccc(-c2csc(NC(=O)CSC(C)C(=O)Nc3cc(C)on3)n2)cc1OC (stereo not given)
 : 10%, ?, 1%
CC(C)(C)N1CC23CCC(C[C@@H]2C1=O)O3 (stereo not given in full)
 : -2%, -2%, -25%
COc1ccc(F)cc1CN1CCN(CC(=O)Nc2ccccc2C(=O)NC2CC2)CC1
 : -22%, ?, 1%
CCC(C)Sc1cccc(-c2nc3cnccn3c2NC2CCCCC2)c1 (stereo not given)
 : 6%, -6%, -5%
COc1cc(C2SC(C)C(=O)N2CCc2ccccc2)cc(OC)c1OC (stereo not given)
 : 4%, -21%, -2%
O=C(Cn1cc(C(F)(F)F)ccc1=O)NCC1CCCO1 (stereo not given)
 : 12%, 5%, 4%
O=C(Cc1ccccn1)c1ccc(F)cc1
 : -3%, 95%[activator], 1%
COc1ccc2c(c1)C(=O)N1[C@H]3c4cc(C)ccc4OC[C@@H]3[C@H](c3ccccc3)[C@]1(C)C(=O)N2
 : 10%, 0%, 3%
CCNc1nc(SCC(=O)Nc2ccc(Cl)c(Cl)c2)nc(N(C)C)n1
 : -5%, ?, -8%
Cc1sc2ncn(CC(=O)NC3CCCCC3)c(=O)c2c1C
 : 2%, -5%, 1%

Additional structures
smiles	RE007 growth inh	2A StopGo	SARS PLpro yeast
Cc1cc2occ(CC(=O)N(C)CC(=O)Nc3ccccc3C(F)(F)F)c2cc1C	6%	-21%	-2%
CC(C)(C)c1ccc(C(=O)Nc2cccc(S(=O)(=O)NC3=NCCC3)c2)cc1	15%	-20%	-3%
O=C1N[C@@H](Cc2c[nH]c3ccccc23)COC(=O)[C@@H](Cc2ccc(F)cc2)CC/C=C/C[C@@H]1CC(=O)N(CCO)Cc1ccccc1	-9%	-23%	0%
CCC/C=C1/CCCOC(C(=O)NCc2ccc(C)o2)(C(F)(F)F)C1 (stereo not given)	-5%	-25%	5%
CS(=O)(=O)n1nc(OC(=O)c2cc(Br)ccc2Cl)cc1N	2%	-5%	-1%
COc1ccc(/C=C(\NC(=O)c2ccccc2)C(=O)OC[C@@H]2CCC[N+]3(C)CCCCC23)cc1OC (stereo not given in full)	0%	-2%	4%
O=C(Cc1ccccc1F)Nc1cc(S(=O)(=O)N2CCOCC2)ccc1N1CCOCC1	2%	0%	12%
Cc1ccc(S(=O)(=O)N2C[C@@H]3CCCC[C@@H]3[C@@H](C)[C@H]2c2cn(Cc3ccccc3)c3ccc(F)cc23)cc1	1%	-9%	?
COc1ccc(NC(=O)Nc2cccc3c2O[C@H](CN(C)C(=O)Nc2c(C)noc2C)[C@@H](C)CN([C@H](C)CO)C3=O)cc1	9%	5%	-10%
Cc1cc(Cl)ccc1OCC(=O)OCC(=O)N1CCC(C(N)=O)CC1	?	-7%	8%
Cc1ccc(S(=O)(=O)N2CCN(C(=O)c3cc4c(s3)CCCC4)CC2)c(C)c1	12%	?	1%
O=C(NCc1cccc(F)c1)c1cccc2c1C(=O)c1ccc(N3CCOCC3)cc1S2(=O)=O	-7%	-23%	2%
CSc1ccc(CN(C)CC(=O)Nc2ccccc2C(=O)NC2CC2)cc1	-4%	-27%	5%
COCCN(Cc1cc2c(C)cc(C)cc2nc1Cl)C(=O)c1ccccc1F	3%	?	0%
CC(=O)c1ccccc1NC(=O)COC(=O)C1CCCN1S(=O)(=O)c1ccccc1F (stereo not given)	-11%	-7%	4%
C[C@H](CO)N1C[C@H](C)[C@@H](CN(C)C(=O)NC2CCCCC2)Oc2ccc(NC(=O)Cn3cnnn3)cc2C1=O	-1%	9%	-6%
Cc1cc(C)cc(NC(=O)NN2C(C)CCCC2C)c1 (stereo not given)	3%	-5%	-4%
COC(=O)[C@]1(Cc2ccccc2)N[C@H](CN(C)C(=O)c2ccc(F)cc2)[C@@H]2C(=O)N(C)C(=O)[C@@H]21	-6%	-11%	0%
C#CCOCCOCCOCCNc1nc(N2CCN(C(=O)[C@H](CC(N)=O)n3cc([C@@H](N)C(C)C)nn3)CC2)nc(N2CCN(C(=O)[C@H](CC(N)=O)n3cc([C@@H](N)C(C)C)nn3)CC2)n1	0%	-4%	9%
O=C(Nc1ccc(F)cc1)c1ccc2c(c1)S(=O)(=O)N=C1CCCCCN12	10%	-6%	1%
Cc1cc(/C=N/NC(=O)c2cccc(F)c2)c(C)n1-c1ccccc1	11%	-38%	2%
COc1ccccc1N(C)S(=O)(=O)c1ccc(C(=O)OCC(=O)Nc2ccc(C(N)=O)cc2)cc1	0%	-4%	0%
CC(C)c1ccc(S(=O)(=O)N2CCN(C(=O)c3ccncc3)CC2)cc1	0%	-35%	-1%
CC(C)Cn1c(N)c(C(=O)COC(=O)c2cccn2C)c(=O)n(C)c1=O	5%	-28%	0%
CCOC(=O)c1c(C)c(C(=O)NCCc2ccccc2)c(C)n1C	-5%	41%[activator]	0%
COc1ccc(C(=O)NCC(=O)OCC(=O)NCc2cccs2)cc1	0%	7%	-5%
CC(C)N(C(=O)[C@H]1C[C@H](CC(=O)NCCN2CCOCC2)C(=O)N2CCc3c([nH]c4ccc(Cl)cc34)[C@]12C)C(C)C	-12%	0%	-3%
CN(C(=O)c1ccc(NC(=O)Cc2cccc(NC(=O)C3CCCN(C(=O)C4CC4)C3)c2)cc1)C1CCCC1 (stereo not given)	23%	-21%	5%
Nc1nc2n(n1)C(=O)CC(c1ccccc1[N+](=O)[O-])N2 (stereo not given)	-1%	4%	-2%
COc1cccc(NC(=O)CN(C)CC(=O)NCC(=O)Nc2ccc(F)cc2)c1	1%	9%	20%
COc1cc2c(cc1OC)[C@H]1C(=O)c3ccc4c(c3O[C@H]1CO2)C[C@@H](C(C)(C)O)O4	1%	0%	-8%
Cc1cc(C)n2nc(C(=O)OCC(=O)Nc3ccc4c(c3)OCCO4)nc2n1	-3%	8%	0%
COc1ccc(OCC(=O)Nc2cccc(S(=O)(=O)N(C)c3ccccc3)c2)c([N+](=O)[O-])c1	2%	7%	1%
O=C(COC(=O)COc1ccc(Cl)cc1)NC1CCS(=O)(=O)C1 (stereo not given)	-4%	-11%	1%
CC(C)(Cc1ccccc1)/[N+]([O-])=C\c1ccccc1	-14%	-1%	-4%
Fc1ccc(NCc2nnc3n2CCCCC3)cc1	9%	-14%	1%
C[C@@]12C(=O)Nc3ccc(F)cc3C(=O)N1[C@H]1c3cc(Cl)ccc3OC[C@@H]1[C@@H]2c1ccccc1	22%	?	-3%
Cc1cc(C)c(NC(=O)CN(C)CC(=O)N(C)CC(=O)Nc2c(Cl)cccc2Cl)c(C)c1	-18%	-8%	2%
O=C(NCC(=O)N1CC(O)CC1C(=O)N1CC(O)CC1C(=O)OCc1ccccc1)OCc1ccccc1 (stereo not given)	7%	-12%	-2%
Nc1nc(SCC(=O)Nc2ccc(Cl)c([N+](=O)[O-])c2)n[nH]1	2%	-29%	-8%
O=C(NNc1nc2c(F)cc(F)cc2s1)C1COc2ccccc2O1 (stereo not given)	4%	0%	2%
CC(=O)c1ccc(NCC(=O)N2CCN(S(=O)(=O)c3ccccc3)CC2)cc1	0%	-4%	3%
CC(C)N(C(=O)[C@H]1C[C@H](CC(=O)NCCc2ccccn2)C(=O)N2CCc3c([nH]c4cc(CCC(=O)N(C)C)ccc34)[C@]12C)C(C)C	0%	-4%	-11%

High-throughput results (PubChem BioAssay)

An excerpt (hit frequency here may not be typical).
